Ecoli rRNA inh: reduced GFP signal of wild-type E. coli, primary screen, bacterial rRNA inhibitor project, GFP/RFP fluorescence, OD600, single point | E. coli WT GFP vs humanized-ribosome RFP mutants, 24 h; stronger effect = lower value; DMSO median 0, no signal -100 | GFP signal change (wild-type ribosome), % (no concentration beside the values) | 350,000 tested, 1.6% active;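 active = significant combined selectivity score with lowered wild-type GFP, culture density cut under 30%, mutant RFP and density less affected; inactive = any of these conditions unmet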; also: one replicate is shown; some compounds called inactive have numbers as strong as hits
ALR inh: inhibitors of human ALR sulfhydryl oxidase, primary screen, biochemical, H2O2 detection, HRP-luminol luminescence, single point | FAD-linked sulfhydryl oxidase ALR (Homo sapiens), P55789 | purified ALR, DTT oxidation | inhibition, % (test concentration not listed) | 290,000 tested, 3.8% active | AID 485317, 2010;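 active = mean and each replicate at 75% or more; inconclusive = only one of the two met; inactive = neither met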;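 also: stock transfer was 7.5 nL into about 7.5 µL; 0% = neutral wells and 100% = wells with inactivated enzyme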
Target sequence (P55789 whole entry, looked up): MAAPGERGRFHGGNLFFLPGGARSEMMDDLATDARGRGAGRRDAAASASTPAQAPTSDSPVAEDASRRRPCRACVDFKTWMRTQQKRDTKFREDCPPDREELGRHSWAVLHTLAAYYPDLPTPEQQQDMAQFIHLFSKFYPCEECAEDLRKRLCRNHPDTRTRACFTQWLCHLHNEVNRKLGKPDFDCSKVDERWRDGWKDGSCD
E coli growth: E. coli growth inhibition, primary screen, OD600 | Escherichia coli growth, 23 h; stronger effect = lower value | OD600 absorbance (concentration not given with the values) | 330,000 tested, 0.21% active;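 active = OD600 absorbance below the run mean of sample wells minus 3.6 SD, in any replicate, cut at about 0.56 in these data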;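 also: stock transfer was 300 nL into about 60 µL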
Beta2AR agonist: beta2AR agonists driving receptor internalization, primary screen, cell-based, FAP fluorogen, flow cytometry | response, % (no concentration beside the values) | AID 504454, 2011 | 340,000 tested, 0.43% active | Am2.2-beta2AR cells; reference of the scale not given here;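 active = response above a set limit, near 3 SD of response in nonfluorescent compounds, cut at about 42% in these data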;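 also: stock transfer was 100 nL into about 11 µL; a reference agonist was the positive control; negative values mostly stem from fluorescent compounds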
UCH37 DUB inh: inhibitors of human UCH37 deubiquitinase, primary screen, biochemical, Ub-AMC cleavage, fluorescence. Ubiquitin carboxyl-terminal hydrolase isozyme L5 (Homo sapiens), Q9Y5K5. purified proteasome/UCH37. inhibition, % (no concentration beside the values). 330,000 tested, 0.33% active. AID 588478, 2011;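 active = mean of two replicates above 20%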;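 also: 0% = compound-free wells with enzyme and 100% = wells lacking proteasome; stock transfer was 100 nL into about 20 µL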
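Material: human UCH37 enzyme supplied as purified proteasome complex. Measure: % inhibition of Ub-AMC cleavage fluorescence. Medium: pH 7.4 Tris-HCl (50 mM) with ovalbumin, ATP-MgCl2, DTT. Times: 30 min preincubation with enzyme, 25 min cleavage at room temperature. Detection: AMC fluorescence intensity at 355/460 nm.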
FGF22 binding: binders of human FGF22 protein, primary screen, FGF22 synaptogenesis inhibitor project, biophysical, thermal shift, single point | Fibroblast growth factor 22 (Homo sapiens), Q9HCT0 | recombinant FGF22 thermal shift, SYPRO orange fluorescence; percent of sucrose octasulfate shift, DMSO zero | calls only at 9.99 µM | 340,000 tested, 1.5% active | AID 651658, 2012;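 active = melting point raised past a set limit in the mean and every replicate; inconclusive = no clear call; three in four hits are not shown here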
Target sequence (Q9HCT0 whole entry, looked up): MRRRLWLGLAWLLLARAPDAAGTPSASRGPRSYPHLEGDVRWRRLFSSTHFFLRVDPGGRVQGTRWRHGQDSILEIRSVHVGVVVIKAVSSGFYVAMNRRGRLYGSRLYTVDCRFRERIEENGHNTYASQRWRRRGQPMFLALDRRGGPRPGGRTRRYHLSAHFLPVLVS
HNF4A DNA FP: change in binding of human HNF4A to DNA, primary screen, biochemical, fluorescence polarization, FITC-DNA | activity change, % at 10 µM | AID 1224865, 2016 | Hepatocyte nuclear factor 4-alpha (Homo sapiens), P41235 | 360,000 tested, 0.3% active | 1 h; in the data active = activity change above about 30%, passing the limit was not always enough;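 also: controls were the assay level and a saturating level of protein; the project sought stronger binding though the title names inhibitors; some compounds called inactive have numbers as strong as hits; positive values seem to mean higher polarization but the record does not say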
Target sequence (P41235 whole entry, looked up): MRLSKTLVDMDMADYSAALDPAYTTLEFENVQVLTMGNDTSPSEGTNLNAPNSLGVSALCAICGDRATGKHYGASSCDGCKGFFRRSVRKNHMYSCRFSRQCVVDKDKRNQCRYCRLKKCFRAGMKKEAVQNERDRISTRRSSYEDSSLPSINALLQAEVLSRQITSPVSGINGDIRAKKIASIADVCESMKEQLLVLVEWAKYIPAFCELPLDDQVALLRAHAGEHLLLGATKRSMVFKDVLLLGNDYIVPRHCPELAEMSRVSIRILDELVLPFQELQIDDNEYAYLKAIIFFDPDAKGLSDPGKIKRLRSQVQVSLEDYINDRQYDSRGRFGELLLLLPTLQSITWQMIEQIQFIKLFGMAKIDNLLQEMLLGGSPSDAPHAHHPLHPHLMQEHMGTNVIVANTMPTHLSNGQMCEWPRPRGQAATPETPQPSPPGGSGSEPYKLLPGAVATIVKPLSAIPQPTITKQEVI
Ecoli rRNA inh OD600: also measured in Ecoli rRNA inh; calls as there; OD600 change, %; measured here: OD600 growth;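 optical density of the mix in the first replicate; 0 = DMSO median and -100 = no signal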
Ecoli rRNA inh RFP: further read-out of Ecoli rRNA inh, marked with its call; RFP signal change, %; measured here: RFP humanized mutant strains;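 first replicate; 0 = DMSO median and -100 = no signal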
Starred values were filed as active, the others as inactive; i = inactive; ? = inconclusive; · = no result given. These rows are one share of the data; count on the stated rates, not on these rows.

SMILES | Ecoli rRNA inh | Ecoli rRNA inh OD600 | Ecoli rRNA inh RFP | ALR inh | E coli growth | Beta2AR agonist | UCH37 DUB inh | FGF22 binding | HNF4A DNA FP
C/C(=N\NS(=O)(=O)c1cccc([N+](=O)[O-])c1)c1cccnc1 | 14 | 9 | -5.7 | 22 | · | 3 | · | i | 0.8
CCn1cc(SCC(=O)NCc2ccc3c(c2)OCO3)c2ccccc21 | -9 | -44 | -8.5 | ? | 0.7 | -4 | 1.9 | i | 3.9
O=C(Nc1c(Cl)cccc1Cl)c1cc(=O)n(Cc2ccccc2)c(=O)[nH]1 | · | · | · | -3 | 0.7 | 7 | 0.5 | · | 17
Cc1ccc(NC(N)=S)cc1 | · | · | · | 46 | 0.68 | -2 | 2.1 | i | 1.9
Cc1cc(C(=O)C(=O)O)c(C)n1-c1ccc(Cl)cc1 | -13 | -19 | -6.1 | 2 | 0.68 | -6 | 2.0 | i | 1.0
CCSc1ccccc1C(=O)NCc1ccc(OC)cc1 | · | · | · | 0 | 0.73 | -11 | 4.5 | · | -0.5
O=C(CCCN1C(=O)c2cccnc2C1=O)Nc1ccc(F)cc1Cl | 4 | 7 | -1.1 | -2 | 0.67 | -1 | 0.6 | i | 2.4
O=C(NNc1ccccc1[N+](=O)[O-])Nc1cccc(Cl)c1 | -55 | -78 | -23 | -10 | · | 5 | · | i | -3.4
C[C@H](c1ccccc1)N1C[C@H](COCc2ccccc2)Oc2cc(N3CC[C@@H](N(C)C)C3)ccc2S1(=O)=O | -4 | 1 | -2.2 | · | · | · | · | i | 9.2
CC(C)(C)NC(=O)CSc1nnc(C2CC2)n1-c1ccccc1 | 9 | 1 | 1.0 | · | 0.69 | -2 | 4.8 | i | -4.4
Cc1ccc(/C=C/C(=O)Nc2cc(S(=O)(=O)N3CCCCCC3)ccc2OCC(F)(F)F)o1 | · | · | · | 13 | 0.68 | 4 | 2.2 | · | 1.1
CCOC(=O)C1CCCN(c2ncnc3c2cnn3-c2ccc(OC)cc2)C1 (stereo not drawn) | · | · | · | 1 | 0.65 | 8 | 0.2 | · | 3.4
CN(Cc1ccccc1)c1ncnc2c1cnn2-c1ccccc1 | -32 | -34 | -25 | -1 | 0.64 | 0 | -3.3 | i | 5.2
O=C(Nc1ccc(NC(=O)C2CC2)cn1)c1ccccc1Cl | · | · | · | 6 | 0.67 | -3 | 3.6 | · | 5.5
NNC(=O)CNC(=O)c1ccc(F)cc1 | -1 | 4 | -1.8 | 13 | 0.69 | -2 | 3.7 | i | 2.8
O=C(N/N=C/c1cccc(O)c1)c1ccc(-n2cnnn2)cc1 | 4 | 5 | -1.5 | · | · | 0 | · | i | 1.8
Cc1nn2c(=O)cc(COC(=O)c3c(F)cccc3Cl)nc2s1 | -11 | -10 | -2.5 | · | 0.63 | 4 | 5.5 | i | -1.2
COC(=O)C1=C(C)N(Cc2ccco2)C(=O)N[C@@H]1c1ccccc1 | -1 | 11 | 11 | -18 | · | -4 | 2.4 | i | 1.6
OC[C@@H]1[C@@H](c2ccccc2)C(c2ccc(F)cc2)=NN1c1ccccc1 | · | · | · | · | 0.7 | 8 | -418 | · | 3.1
COc1cccc(CN2CCC(C(=O)N3CCN(c4ccccc4F)CC3)CC2)c1 | -4 | -7 | -5.0 | 5 | 0.71 | -1 | 2.8 | i | -0.3
Cc1ccc(S(=O)(=O)N2CCC(C(=O)OCC(=O)Nc3cc(S(C)(=O)=O)ccc3Cl)CC2)cc1C | -7 | -12 | 3.0 | -5 | 0.73 | -2 | -1.8 | i | 5.5
O=C(NCc1ccc2c(c1)OCO2)c1ccc(S(=O)(=O)N2CCCCC2)cc1 | · | · | · | -10 | 0.72 | 0 | 3.0 | · | 1.8
COc1cccc(-c2c(C(=O)N/N=C/c3ccc(C)o3)nnn2-c2nonc2N)c1 | -3 | 11 | -1.0 | -15 | · | -1 | · | i | -1.9
COC(=O)c1ccc2c(=O)[nH]c(CN3c4ccccc4CC3C)nc2c1 (stereo not drawn) | · | · | · | -25 | 0.66 | 12 | 2.1 | · | 2.0
CCn1cnc2cc(NC(=O)c3ccco3)ccc21 | · | · | · | · | 0.68 | -13 | 1.1 | · | 1.9
Further results.
SMILES | Ecoli rRNA inh | Ecoli rRNA inh OD600 | Ecoli rRNA inh RFP | ALR inh | E coli growth | Beta2AR agonist | UCH37 DUB inh | FGF22 binding | HNF4A DNA FP
CCN(CC)CCN(C(=O)CCS(=O)(=O)c1ccccc1)c1nc2cc(C)cc(C)c2s1 | 9 | 5 | -0.5 | 51 | 0.74 | 10 | 3.6 | i | 1.6
O=S(=O)(NCC(Nc1ccc(Cl)cc1)c1ccccc1)c1ccccc1 (stereo not drawn) | · | · | · | 31 | 0.68 | 0 | 3.6 | · | 0.2
Cc1ccccc1C(=O)NC(=S)NCc1cccnc1 | · | · | · | 8 | 0.61 | 0 | -0.6 | · | 3.3
Cn1c(=O)c2c(SCC(=O)N3CCOCC3)nc(-c3ccccc3Cl)nc2n(C)c1=O | 6 | 10 | 1.3 | 0 | 0.72 | -6 | 3.4 | i | 2.2
CN(C)CCN(Cc1cc2cc3c(cc2[nH]c1=O)OCCO3)C(=S)NCC1CCCO1 (stereo not drawn) | 8 | 15 | -2.6 | -11 | 0.66 | 5 | -136 | i | 0.2
O=C(Nc1ccc(NC(=S)NC(=O)c2ccco2)cc1)c1ccccc1 | · | · | · | -14 | 0.66 | -3 | 2.6 | i | 5.7
COCCN(C(=O)COC(=O)c1ccccc1Oc1ccccc1)c1c(N)n(Cc2ccccc2)c(=O)[nH]c1=O | 6 | -3 | 2.0 | 1 | 0.67 | -16 | 1.9 | i | -1.6
CCCN1C(=O)c2ccc(C(=O)Nc3ccccc3C(=O)O)cc2C1=O | -21* | -7.5* | -4.8* | 97* | 0.67 | 4 | 5.0 | i | 0.4
CCCNC(=O)Cn1cnc2sc(C(=O)N3CCCC(C(=O)OCC)C3)c(C)c2c1=O (stereo not drawn) | · | · | · | · | 0.7 | 6 | -0.6 | · | -1.4
c1ccc(-c2cc(-c3ccccc3)n3ncnc3n2)cc1 | -19 | -20 | -5.8 | -26 | 0.6 | -10 | -15 | i | -2.3
O=C1c2cccc3cc(Br)cc(c23)C(=O)N1Nc1ccccc1 | · | · | · | -6 | 0.72 | 0 | 1.2 | · | -0.8
Cc1ccc(S(=O)(=O)Oc2ccc(/C=C(/NC(=O)c3ccccc3)C(=O)NCCC(=O)O)cc2)cc1 | 10 | 10 | 1.1 | 2 | 0.65 | 4 | -0.3 | i | 8.0
C=CCSc1nc(C)cc(C(=O)OCC)c1C#N | -18 | -19 | -2.0 | 0 | 0.63 | -3 | 2.8 | i | 2.7
CCCCCCn1c(COc2ccccc2F)nnc1SCC(=O)c1c(N)n(C)c(=O)n(C)c1=O | 17 | 8 | -0.8 | -2 | 0.66 | · | 1.9 | i | ·
COC(=O)C=C1CCC2C3CCC4=CC(=O)CCC4(C)C3C(=O)CC12C (stereo not drawn) | 3 | -15 | 1.9 | · | 0.71 | 94* | 1.3 | · | 0.4
CCC(=O)Nc1ccc(C(=O)Nc2cccc(OC)c2)cc1 | · | · | · | -7 | 0.73 | -5 | -0.2 | · | 1.4
Cc1c(NS(=O)(=O)CC23CCC(CC2=O)C3(C)C)c(=O)n(-c2ccccc2)n1C (stereo not drawn) | · | · | · | 3 | 0.73 | -1 | 7.0 | · | -1.4
O=C(COC(=O)c1ccc2ccccc2c1O)Nc1ccccc1 | 6 | 6 | 1.2 | · | 0.68 | 10 | -38 | i | 0.9
Cc1ccc(S(=O)(=O)N2CCC(C(=O)OCC(=O)NC(C)c3ccc(F)cc3)CC2)cc1C (stereo not drawn) | -13 | -12 | 5.3 | -34 | 0.69 | -3 | 4.4 | i | 5.8
O=C1N(Cc2cccc(Cl)c2)C[C@@H]2C[C@@H](c3ccco3)N3CCC[C@@]123 | 12 | 6 | 2.2 | 1 | 0.65 | 6 | 5.0 | i | -5.8
COc1ccc(-c2nc(CS(=O)CC(=O)NC3CCCC3)c(C)o2)cc1OC (stereo not drawn) | 1 | -17 | -1.9 | 99* | 0.67 | -9 | 0.1 | i | -0.2
CCCCC(=O)Nc1cc(NC(=O)CC)ccc1Cl | · | · | · | -6 | 0.73 | 4 | 4.5 | · | -0.6
O=C(N/N=C/c1ccccc1C(=O)O)c1ccncc1 | 16 | 17 | 3.2 | -3 | · | -2 | · | i | 0.8
Cc1ccccc1-n1c(SCC(=O)Nc2ccccc2)nc2nc3c(cc2c1=O)CCCC3 | · | · | · | -1 | 0.74 | -13 | -0.5 | · | 2.5
O=C(Nc1ccncc1)C1CC(=O)N(Cc2ccccc2)C1 (stereo not drawn) | 5 | 9 | -2.3 | · | 0.69 | 3 | 0.8 | i | -1.4
Other results follow:
SMILES | Ecoli rRNA inh | Ecoli rRNA inh OD600 | Ecoli rRNA inh RFP | ALR inh | E coli growth | Beta2AR agonist | UCH37 DUB inh | FGF22 binding | HNF4A DNA FP
Cc1cc(C)nc(NC(=O)c2c(-c3ccccc3Cl)noc2C)c1 | · | · | · | -1 | 0.71 | -4 | -0.8 | · | 2.4
CC(=O)NCc1cn2c(C)csc2n1 | 0 | 9 | 8.5 | -6 | 0.73 | -10 | 2.9 | i | 0.8
COc1cccc(CNS(=O)(=O)c2ccc3c(c2)N(C(C)=O)CCO3)c1 | 9 | 2 | 2.0 | -1 | 0.72 | 1 | 4.3 | i | 0.6
Cc1ccc(NC(=O)c2ccc(S(=O)(=O)NCc3ccco3)cc2)cc1 | 8 | 9 | -1.2 | · | 0.65 | 1 | 0.5 | i | -1.4
Cc1cc(C)c(O)c(-c2cc(C(=O)Nc3c(C)n(C)n(-c4ccccc4)c3=O)[nH]n2)c1 | 4 | 2 | -1.4 | 99* | 0.65 | -2 | 2.9 | i | 1.2
Clc1nc(Nc2ccccc2)nc(Nc2ccccc2)n1 | · | · | · | 11 | 0.7 | 13 | 5.1 | · | 0.1

Screens deposited in PubChem BioAssay by several laboratories.
